From PubChem BioAssay
GIV Gai3 FP: blocks GIV peptide binding to rat Galpha-i3. P08753. Galpha-i3/FITC-GIV peptide fluorescence polarization, 90 min; hits give low values; scaled: aluminum fluoride 0%, vehicle 100%. percent of control (FP), % (concentration not given with the values). 210,000 tested, 0.42% active. AID 1224905;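 active means replicate mean at 85% of control or lower, very high polarization wells dropped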;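 further: wells of about 15 µL received 100 nL stock; the first replicate is given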
Target sequence (P08753 whole entry, looked up): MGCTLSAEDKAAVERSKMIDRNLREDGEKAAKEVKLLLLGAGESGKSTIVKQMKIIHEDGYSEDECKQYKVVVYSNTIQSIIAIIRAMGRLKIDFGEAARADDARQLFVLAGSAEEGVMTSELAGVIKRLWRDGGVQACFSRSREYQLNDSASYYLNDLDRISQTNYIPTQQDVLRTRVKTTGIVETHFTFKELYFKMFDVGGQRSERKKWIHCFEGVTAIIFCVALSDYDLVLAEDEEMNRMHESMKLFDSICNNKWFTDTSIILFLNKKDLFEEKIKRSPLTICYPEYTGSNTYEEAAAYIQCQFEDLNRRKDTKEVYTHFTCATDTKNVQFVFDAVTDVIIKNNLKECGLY
Sa growth inh: inhibitors of Staphylococcus aureus growth at 42 °C; relative growth, % (concentration not given with the values); S. aureus RN4220 growth, OD600, 20 h; hits give low values; 170,000 tested, 0.53% active; AID 720641;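 active means growth at 42 °C up to 50% and 20 or more points under that at 30 °C, or under 10% at both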;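 further: 300 nL library stock went into each well; scaled to the means of positive and negative controls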
HCMV NEC inh: inhibitors of HCMV UL50-UL53 nuclear egress complex interaction | AID 1918969 | inhibition, % (test concentration not listed) | HTRF UL50-UL53 interaction, normalized percent inhibition | 190,000 tested, 0.15% active;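 active means both replicates at 50% or more, plus weaker picks with an unusually low signal ratio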;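 further: stock transfer was 100 nL into about 20 µL; 0% = negative control wells and 100% = wells with untagged competitor protein; inactives centre near -12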
Sa growth inh second temp: also measured in Sa growth inh; calls as there; relative growth, %; measured here: growth at 30 °C;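 optical density after 20 h as mean of two plates; 100% = untreated growth and lower means inhibition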
* = called active by the depositor; . = no result given; & = joins results of further samples.

Abbreviations – A = GIV Gai3 FP; B = Sa growth inh; C = Sa growth inh second temp; D = HCMV NEC inh
mol: Cc1ccc(OCC(=O)Nc2ccccc2C(=O)OCc2cc(=O)n3ccsc3n2)cc1C
  A: 106.5; B: 94.7; C: 94.9; D: .
mol: Cc1ccc(N2C(=O)c3ccccc3C2=O)nc1
  A: 97.2; B: .; C: .; D: -84.7
mol: O=C(COc1ncnc2ccccc12)NC(c1ccccc1)c1ccccc1
  A: .; B: 120.5; C: 91.2; D: -1.6
mol: Cc1sc2ncnc(N(C)C)c2c1C
  A: .; B: 98.9; C: 80.7; D: -4.1
mol: Nc1cc(OC(=O)c2ccccc2)nn1S(=O)(=O)c1ccccc1
  A: 97.0; B: 105.0; C: 88.6; D: .
mol: CC1CCCCC1NC(=O)COC(=O)c1nc(Cl)ccc1Cl (stereo unspecified)
  A: .; B: 98.7; C: 84.4; D: -24.0
mol: Cc1c(/C=N/n2cnnc2)[nH]n(-c2ccccc2)c1=O
  A: .; B: 81.0; C: 93.4; D: -9.2
mol: O=C(CSCc1nc2scc(-c3cccs3)c2c(=O)[nH]1)Nc1nnc(C2CC2)s1
  A: .; B: 98.8; C: 86.2; D: -23.6
mol: COc1cccc(N2CCN(c3ncnc4c3c(-c3ccccc3)cn4-c3ccc(F)cc3)CC2)c1
  A: 106.4; B: 128.8; C: 87.6; D: .
mol: O=C(NCc1ccccc1)c1cnc(N2CCCC2)nc1
  A: 100.8; B: 84.5; C: 83.3; D: .
mol: Cc1ccccc1N1C(S)=C(C#N)C(=O)NC1c1ccco1 (stereo unspecified)
  A: 109.4; B: 89.3; C: 51.4; D: -4.5
mol: CC(=O)N1CCOc2ccc(S(=O)(=O)Nc3cc(C(F)(F)F)cc(C(F)(F)F)c3)cc21
  A: 105.6; B: 102.5; C: 68.3; D: -2.4
mol: CCN(CC)CCn1nc2c3c(cccc3c1=O)-c1ccccc1-2
  A: 97.7; B: 102.6; C: 85.8; D: -30.5
mol: CC(O/N=C/c1ccccc1OC(F)F)C(=O)NC1CCCC1 (stereo unspecified)
  A: .; B: 111.3; C: 85.3; D: -11.6
mol: Cc1n[nH]c(C)c1Nc1nc(-c2ccccc2)cs1
  A: 97.0; B: 108.2; C: 71.9; D: .

4 compounds from above with just GIV Gai3 FP, HCMV NEC inh and Sa growth inh second temp:
SMILES	GIV Gai3 FP	HCMV NEC inh	Sa growth inh second temp
Cc1ccccc1N1C(S)=C(C#N)C(=O)NC1c1ccco1 (stereo unspecified)	109.4	-4.5	51.4
O=C(CSCc1nc2scc(-c3cccs3)c2c(=O)[nH]1)Nc1nnc(C2CC2)s1	.	-23.6	86.2
CC1CCCCC1NC(=O)COC(=O)c1nc(Cl)ccc1Cl (stereo unspecified)	.	-24.0	84.4
O=C(COc1ncnc2ccccc12)NC(c1ccccc1)c1ccccc1	.	-1.6	91.2

Going on with the list:
Abbreviations – A = GIV Gai3 FP; B = Sa growth inh; C = Sa growth inh second temp; D = HCMV NEC inh
mol: Cc1oc(C(C)(C)C)cc1-c1cc(N)n(-c2ccc(I)cc2)n1
  A: 105.9; B: 106.3; C: 90.4; D: .
mol: Cc1cc(C(=O)OC(C)C(=O)Nc2cccc(Cl)c2)c2ccccc2n1 (stereo unspecified)
  A: .; B: 116.8; C: 94.9; D: -30.1
mol: CCOC(=O)C1=C(C)NC(C)=C(C(=O)OCC)C1C(=O)OCC(=O)NC1CCCCCC1
  A: .; B: 85.6; C: 88.5; D: 0.5
mol: Cc1ccsc1CNS(=O)(=O)c1cccc2nonc12
  A: 101.9; B: 110.8; C: 90.3; D: -42.1
mol: CCCCOc1ccc(C(=O)On2c(-c3cc(OC)cc(OC)c3)nc3ccccc3c2=O)cc1
  A: 92.7; B: .; C: .; D: -7.9
mol: c1ccc2c(c1)nc(N1CCOCC1)n1cc(N3CCCC3)nc21
  A: .; B: 107.2; C: 85.5; D: -8.7
mol: O=C(NCC1COc2ccccc2O1)c1ccc2c(Cl)c3c(nc2c1)CCC3 (stereo unspecified)
  A: 108.9; B: 107.2; C: 105.6; D: 0.9
mol: c1ccc(CN2CCN(Cc3ccccc3)C2c2ccccc2)cc1
  A: 103.8; B: 128.4; C: 55.3; D: 4.0
mol: CSc1cc(-c2ccc(F)cc2)nn1S(=O)(=O)c1cccc(C(F)(F)F)c1
  A: 108.4; B: 112.7; C: 101.5; D: 6.6
mol: Cc1ccc(NC(=O)c2ccc(=O)n(CC(=O)Nc3ccccc3)n2)cc1
  A: 100.8; B: 110.6; C: 80.6; D: .
mol: COC(=O)C1CC2CCC1C2 (stereo unspecified)
  A: .; B: 99.9; C: 104.8; D: -5.2
mol: O=C(CCc1nc2ccccc2[nH]1)N1CCN(C2CCCCC2)CC1
  A: 105.6; B: 93.0; C: 88.2; D: .
mol: CCc1ccc(-c2[nH]nc3c2C(c2ccc(N(C)C)cc2)C2=C(CC(C)(C)CC2=O)N3)cc1 (stereo unspecified)
  A: 101.9; B: .; C: .; D: 2.1
mol: O=C(CSc1ccccc1Cl)c1ccco1
  A: .; B: 99.6; C: 87.3; D: -6.4
mol: CC(C)(C)NC(=S)N1CCn2cccc2C1c1ccc(F)cc1 (stereo unspecified)
  A: 102.8; B: 100.8; C: 86.9; D: -26.9

Going on with the list:
Abbreviations – A = GIV Gai3 FP; B = Sa growth inh; C = Sa growth inh second temp; D = HCMV NEC inh
mol: CC1=C(C(=O)OCC(C)C)C(c2cc3c(cc2Br)OCO3)NC(=O)N1C (stereo unspecified)
  A: 98.8; B: .; C: .; D: -6.3
mol: O=C(CN1C(=O)C2(SCC(=O)N2c2cccc(F)c2)c2ccccc21)NCCc1ccccc1 (stereo unspecified)
  A: 105.7; B: 114.5; C: 93.3; D: .
mol: CCc1cc(C(Nc2nc(C)cc(C)n2)c2ccc(C)cc2)c(NC(=O)c2ccccc2)s1 (stereo unspecified)
  A: 115.1; B: .; C: .; D: -32.6
mol: COc1cc(OC)cc(C(=O)N/C(N)=N\c2nc3ccccc3s2)c1
  A: 105.4; B: 69.6; C: 85.5; D: .
mol: COc1ccc(-c2nc3nc(C)cc(Nc4cccc(C(F)(F)F)c4)n3n2)cc1
  A: 99.6; B: 95.7; C: 84.0; D: -34.6
mol: Oc1cc(Cc2nc3ccccc3s2)c(O)cc1Cc1nc2ccccc2s1
  A: 105.5; B: 71.8; C: 77.1; D: .
mol: O=C1CC(c2ccccc2)c2c(n3ncnc3[nH]c2=O)N1 (stereo unspecified)
  A: 103.2; B: 124.1; C: 93.2; D: .
mol: Cc1c(NC(=O)c2cc(=O)c3cc(Cl)ccc3o2)c(=O)n(-c2ccccc2)n1C
  A: 101.2; B: 101.6; C: 88.7; D: -51.2
mol: CC(=O)N1CCc2cc(S(=O)(=O)CCC(=O)Nc3ccc(Cl)cc3C)ccc21
  A: 104.1; B: .; C: .; D: -2.7
mol: COC(=O)c1cc(S(=O)(=O)N2CCCC2)oc1C
  A: 94.5; B: 106.2; C: 92.3; D: -1.3
mol: CN(C(=O)CSc1ccc(Br)cc1)C1CCCCC1
  A: .; B: 61.6; C: 100.0; D: -24.1
mol: Cc1cc(C)cc(NC(=O)NCCc2c(C)nn(C)c2C)c1
  A: 104.0; B: 79.4; C: 85.1; D: .
mol: Cc1nn(CC(C)C)c(Cl)c1C(=O)N1CCc2ccccc2C1
  A: .; B: 95.9; C: 88.0; D: -29.4
mol: Cc1occc1-c1nnc(SCc2nn[nH]n2)n1-c1ccccc1
  A: 97.3; B: 96.6; C: 97.8; D: -20.3
mol: Cc1nc(N2CCCC(C(=O)NC3CCCCC3)C2)c2c(C)c(C)oc2n1 (stereo unspecified)
  A: 96.5; B: .; C: .; D: -4.3

Carrying on:
Abbreviations – A = GIV Gai3 FP; B = Sa growth inh; C = Sa growth inh second temp; D = HCMV NEC inh
mol: Cc1ccccc1CNCCCSc1nnnn1C
  A: 105.8; B: 104.2; C: 84.6; D: -3.3
mol: CCN(CC)S(=O)(=O)c1ccc(C(=O)Nc2ccc3c(c2)C(=O)c2ccccc2C3=O)cc1
  A: 108.0; B: .; C: .; D: 13.5
mol: Cc1cccc(CCNCc2cc3cc4c(cc3[nH]c2=O)OCO4)c1
  A: 100.2; B: 128.4; C: 104.0; D: -1.3
mol: COc1ccc(NC(=O)C(=O)NCCc2ccc(OC)c(OC)c2)c(OC)c1
  A: 104.9; B: 104.2; C: 101.3; D: 12.3
mol: Nc1ccccc1NC1=CC(=O)CC(c2ccccc2)C1 (stereo unspecified)
  A: 101.8; B: 85.4; C: 87.0; D: .
mol: Cc1ccc(CNC(=O)C2CCN(c3nc4ccccc4n(C)c3=O)CC2)cc1
  A: 102.9&101.1; B: 109.0; C: 83.2; D: -12.4&-6.2
mol: Cn1nc(C(F)(F)F)c(-c2ccc(Br)cc2)c1NC(=O)C1CCC1C(=O)O (stereo unspecified)
  A: 97.6; B: 96.6; C: 84.6; D: 3.3
mol: CCn1c(SCC(=O)N2CCCc3ccccc32)nnc1-c1c[nH]c2ccccc12
  A: 100.6; B: 103.8; C: 92.3; D: .
mol: Cc1ccccc1OCCCC(=O)Nc1cccc(C(F)(F)F)c1
  A: .; B: 67.0; C: 75.0; D: -10.7
mol: O=c1nc(N2CCOCC2)nc(N2CCOCC2)[nH]1
  A: 95.7; B: 114.4; C: 76.2; D: 8.3
mol: CCCCOc1cccc2c1CCN(Cc1ccccc1)C2=O
  A: 103.1; B: 81.3; C: 74.5; D: 8.3
mol: CC(=O)Nc1ccc(S(=O)(=O)NC2(C(F)(F)F)C(=O)Nc3c2c(=O)[nH]c(=O)n3-c2ccc(C)cc2)cc1 (stereo unspecified)
  A: 95.2; B: 90.3; C: 90.5; D: 12.0
mol: CCC(Sc1nnc(COc2ccccc2)n1C)C(=O)Nc1ccccc1 (stereo unspecified)
  A: 109.4; B: 100.8; C: 88.3; D: -17.5
mol: CCn1c(/N=C(\C)c2cc(Cl)ccc2O)nc2ccccc21
  A: .; B: 92.5; C: 92.2; D: -14.3
mol: O=C(O)CC1CCCC(c2ccccc2)C1=O (stereo unspecified)
  A: 99.9; B: 150.2; C: 80.2; D: -26.8

The list continues.
Abbreviations – A = GIV Gai3 FP; B = Sa growth inh; C = Sa growth inh second temp; D = HCMV NEC inh
mol: Clc1ccc(Oc2ccc(Nc3c4c(nc5ncnn35)CCC4)cc2)cc1
  A: 105.6; B: .; C: .; D: -6.3
mol: O=C1c2nc3cc(-c4ccccc4)[nH]n3c(=O)c2CN1Cc1ccccc1
  A: 103.5; B: 109.3; C: 91.5; D: 22.5
mol: O/C(=C\Sc1nnc(Cc2ccccc2)o1)c1ccc(F)cc1
  A: .; B: 73.0; C: 81.6; D: -30.8
mol: COc1cccc(/C=N/n2cnnc2)c1
  A: .; B: 97.9; C: 106.4; D: -21.7
mol: CN(CC(=O)N1CCN(c2ccccc2)CC1)S(=O)(=O)c1c[nH]c(C(=O)N2CCCC2)c1
  A: 103.4; B: .; C: .; D: -9.8
mol: O=C(C1COc2ccccc2O1)N1CCCC1 (stereo unspecified)
  A: 102.6; B: 131.2; C: 89.2; D: -11.1
mol: CCCCc1ccc2nc(N)sc2c1
  A: .; B: 112.9; C: 73.5; D: -30.6
mol: N#C/C(=C\c1ccc(-c2ccccc2)o1)c1ccccc1
  A: 136.8; B: 99.5; C: 114.0; D: 9.0
mol: CCCOC(=O)C1=C(C)N(CC)C(=O)NC1c1ccccc1Cl (stereo unspecified)
  A: 106.4; B: 97.1; C: 84.8; D: .
mol: COc1cccc(-c2noc(NC3CC3)n2)c1OC
  A: 103.4; B: .; C: .; D: 7.8
mol: NC1=NC(=O)/C(=C/c2ccc(I)o2)S1
  A: .; B: 78.4; C: 67.5; D: -56.8
mol: CN(C)S(=O)(=O)c1ccc(SCC(=O)NC(C)(C)C)nc1
  A: .; B: 98.0; C: 95.2; D: 10.5
mol: Nc1c(Br)cc(Br)c2cccnc12
  A: 97.1; B: 88.9; C: 81.2; D: 57.6*
mol: COc1cc2[nH]c(=O)n(CCCC(=O)N3CCN(c4ccc(Cl)cc4)CC3)c(=O)c2cc1OC
  A: 99.5; B: 110.4; C: 91.2; D: 0.1
mol: Cc1ccsc1C=NCCc1ccc(S(N)(=O)=O)cc1
  A: .; B: 112.4; C: 87.8; D: -28.2

The list goes on:
Abbreviations – A = GIV Gai3 FP; B = Sa growth inh; C = Sa growth inh second temp; D = HCMV NEC inh
mol: c1ccc(CC2CCN(c3nc4nonc4nc3Nc3ccc4c(c3)OCO4)CC2)cc1
  A: 110.6; B: .; C: .; D: 11.3
mol: COc1cccc(OCCCCn2c(-c3ccc(Cl)cc3)nc3ccccc3c2=O)c1
  A: 101.5; B: 94.6; C: 105.3; D: 13.3
mol: CC(=O)N1CC(=O)N=C1SCC(=O)Nc1ccc(S(N)(=O)=O)cc1
  A: .; B: 102.0; C: 92.2; D: -27.3
mol: COc1ccc(OC)c(CNS(=O)(=O)c2ccc3[nH]c4c(c3c2)CCCCC4)c1
  A: 99.3; B: 105.4; C: 81.6; D: .
mol: COc1ccc(C(=O)Nc2cc3c(cc2Sc2ccccc2)n(C)c(=O)c(=O)n3C)cc1
  A: 98.2; B: .; C: .; D: -29.8
mol: COc1ccc(C2Nc3ccccc3C(=O)N2c2ccc(C)cc2)cc1COc1ccccc1F (stereo unspecified)
  A: 104.5; B: .; C: .; D: 4.8
mol: CCOc1ccccc1NC(=O)Cn1nnc(C(=O)NCc2cccs2)c1N
  A: 99.8; B: 99.9; C: 79.5; D: -20.2
mol: O=C(CCc1nc2cccnc2n1Cc1ccccc1)NCc1cccc(Cl)c1
  A: 101.3; B: 102.9; C: 77.5; D: -7.8
mol: CCOc1ccc2nc(SCc3ccc([N+](=O)[O-])cc3)nc(C)c2c1
  A: 97.5; B: .; C: .; D: -13.0
